Six1-Eya2 inh – blocks human Six1 binding to Eya2. AlphaScreen GST-Six1/His-Eya2 binding, biochemical; active compounds read low; control for the full effect not named in the record. activity change, % (concentration not given with the values). 0.56% of 360,000 active; in the data active = activity change below about -65%; inconclusive = about -30% to -65%; inactive = above about -30%; further: on the % scale 0 is the no-effect control and ±100 the full control effect
Target sequence (O00167 whole entry, looked up): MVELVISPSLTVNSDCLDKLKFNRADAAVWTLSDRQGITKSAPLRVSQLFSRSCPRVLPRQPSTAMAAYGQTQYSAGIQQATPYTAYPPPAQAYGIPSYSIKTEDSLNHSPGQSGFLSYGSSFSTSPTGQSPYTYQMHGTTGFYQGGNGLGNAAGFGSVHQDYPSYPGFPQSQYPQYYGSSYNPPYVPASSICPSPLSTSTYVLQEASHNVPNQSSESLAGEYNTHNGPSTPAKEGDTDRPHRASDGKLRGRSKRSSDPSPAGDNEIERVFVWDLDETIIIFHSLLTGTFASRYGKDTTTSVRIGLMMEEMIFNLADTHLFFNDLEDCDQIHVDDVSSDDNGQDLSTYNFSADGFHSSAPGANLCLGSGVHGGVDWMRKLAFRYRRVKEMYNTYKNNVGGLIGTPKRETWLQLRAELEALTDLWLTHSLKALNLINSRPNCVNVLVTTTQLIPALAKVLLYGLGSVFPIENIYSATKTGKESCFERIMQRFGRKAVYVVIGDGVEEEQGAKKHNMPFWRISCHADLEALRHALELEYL
Target sequence (Q15475 whole entry, looked up): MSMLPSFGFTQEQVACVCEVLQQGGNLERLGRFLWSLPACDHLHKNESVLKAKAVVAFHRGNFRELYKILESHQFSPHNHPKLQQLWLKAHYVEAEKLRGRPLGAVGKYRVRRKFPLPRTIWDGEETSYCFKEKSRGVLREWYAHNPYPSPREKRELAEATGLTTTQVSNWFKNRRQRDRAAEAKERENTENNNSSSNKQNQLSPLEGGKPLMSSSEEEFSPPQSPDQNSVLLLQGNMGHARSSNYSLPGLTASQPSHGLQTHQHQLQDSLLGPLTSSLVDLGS
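Six1/Eya2 binding was read as AlphaScreen signal after compounds were pinned into GST-Six1 plus His-tagged Eya2 (5X stock 250/500 nM) in pH 8.0 Tris/NaCl/TCEP buffer, beads added, then incubated 1 h, 37 C, dark.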
CtBP-E1A inh – inhibitors of CtBP/E1A interaction; activity change, % (concentration not given with the values); 0.49% of 340,000 active; AlphaScreen GST-E1A/His-CtBP binding, 1536-well; active compounds read low; control for the full effect not named in the record; in the data active means activity change below about -65%; inconclusive means about -30% to -65%; inactive means above about -30%; further: on the % scale 0 is the no-effect control and ±100 the full control effect
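GST-E1A and His-tagged CtBP (125 nM each as 5X stock) were preincubated with pin-transferred compound for 2 h at 37 °C in the dark, then glutathione donor and nickel acceptor beads were added for 1 h before AlphaScreen reading.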
TRPML1 agonist – agonists of human TRPML1 channel | Q9GZU1 | TRPML1-expressing cells, Ca2+ dye fluorescence, FDSS; host cell line not named in the record; reference of the full effect not given here | activation, % (no concentration beside the values) | 0.12% of 410,000 active; in the data active = activation above about 50%; inconclusive = about 30% to 50%; inactive = below about 30%; further: 0% is about no effect; the text of the record puts the active cut at 80%
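Agonist activity was taken from a 110 s kinetic Ca2+ dye read on the FDSS after pinning compounds onto TRPML1-DL cells. The cells were seeded at 1,500/well with Tet inducer, incubated about 16 h, then dye-loaded at room temperature.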
PINK1 expr mod – changes PINK1 expression | PINK1 immunofluorescence, high-content cytometry, 24 h | Potency, µM (doses to about 76.6 µM), without a hit: at the highest dose activation (PINK1 increase), actives largely listed as activators | 0.2% of 410,000 active | AID 624263; active = well fitted activation curve with a large enough effect; inconclusive = small, poorly fitted or top-dose-only effect; inactive = flat fitted curve, though single readings scatter; cell line not stated here;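 further: potency means the concentration at half of the fitted maximal effect; % of control where 0% means no effect; nearly all actives have a fitted effect of over 65% in size; a mitochondrial uncoupler was the plate control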
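Readout is PINK1 immunofluorescence, quantified alongside mitochondrial, cell and nuclear markers by laser-scanning microplate cytometry. Cells from a stable line were exposed to compound titrations (5 concentrations) for 24 hours, with CCCP controls.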
D2 agonist – agonists of human D2 dopamine receptor (beta-arrestin); P14416; DiscoveRx PathHunter D2 beta-arrestin, luminescence, 90 min; 100% = 57 uM dopamine signal; activation, % (no concentration beside the values); 0.084% of 360,000 active; AID 624465; in the data active = activation above about 40%; inconclusive = about 15% to 40%; inactive = below about 15%; further: compound concentration not given in the record; the text of the record calls up to 30% inactive
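DiscoveRx PathHunter D2 beta-arrestin cells (2,100/well) attached overnight, then compound-stimulated 90 min at 37 C in HBSS/10 mM HEPES/0.1% Tween-20 buffer; beta-galactosidase complementation read by luminescence after 1 h at ambient temperature. Dopamine 57 uM final (EC100) as control.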
TRPML1 inh – inhibitors of human TRPML1 channel. Q9GZU1. TRPML1-inducible cells, Ca2+ dye fluorescence, FDSS; active compounds read low; inhibition of EC80 agonist-evoked calcium signal. activity change, negative = inhibition, % (concentration not given with the values). 0.02% of 390,000 active. AID 624415; in the data active means activity change below about -50%; inconclusive means about -30% to -50%; inactive means above about -30%;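 further: stimulus is agonist 54-4 at its EC80 concentration; on the % scale 0 is the no-effect control and ±100 the full control effect; the text of the record puts the active cut at -80%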
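Tet-induced TRPML1-DL cells loaded with Ca8 no-wash calcium dye were read kinetically on FDSS. Compound addition was followed by EC80 agonist 54-4 (4 uM final); inhibition was read over 110 s.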
Starred values were filed as active, the others as inactive; ? = inconclusive; . = not tested or not shown; & = joins results of further samples; [ ] = remark or other dose. Compounds as they come. About 1% of those tested had a hit in this group.

Each structure is followed by: Six1-Eya2 inh	CtBP-E1A inh	TRPML1 agonist	PINK1 expr mod	D2 agonist	TRPML1 inh
1. N#C/C(=C\c1ccc(Sc2nc3ccccc3[nH]2)o1)c1ccccc1
    -1	3	0.2	?	-2.3	5
2. O=C(COc1ccccc1)NCc1cccs1
    5	8	-0.6	4.9%	-3.1	-5
3. OCCC1CN(Cc2ccc(-n3cccn3)cc2)CCN1Cc1ccccc1 (stereo unspecified)
    2	-1	-0.4	0.4%	-0.9	34
4. CC(NC(=O)CNC(=O)c1cccc(Cl)c1)c1ccccc1 (stereo unspecified)
    4	.	1.2	0.5%	-4.7	20
5. COc1ccc([C@H](NC(=O)OC(C)(C)C)C(=O)OC(C)(C)C)cc1
    -2	8	0.7	0.1%	-4.4	38
6. CCc1ccc(NC(=O)CC2C(=O)N(c3cccc(C)c3)C(=O)N2Cc2ccc(F)cc2)cc1 (stereo unspecified)
    .	.	1.1	2.5%	.	14
7. CCCCn1c(N)c(N(CCC(C)C)C(=O)C2CC(=O)N(c3cccc(SC)c3)C2)c(=O)[nH]c1=O (stereo unspecified)
    -1	2	-0.8	1.0%	-5.9	-2
8. CC(C)CNC(=S)N1CCC(C(=O)c2ccc(Cl)cc2)CC1
    -25	-21	-0.8	0.7%	-1.6	12
9. CO/N=C/CC(=O)c1ccc([N+](=O)[O-])c(CS(=O)(=O)c2ccc(Cl)cc2)c1
    -4	.	-0.5	1.1%	8.7	-2
10. COc1ccc(-c2noc(CCCC(=O)NCc3ccco3)n2)cc1OC
    -17	-1	0.0	-1.2%	1.7	1
11. Cc1cc(F)ccc1NC(=O)c1cc(S(=O)(=O)N2CCCC2)cn1C
    0	-2	-0.4	0.6%	0.3	2
12. COc1cc(OC)c(NC(=S)NCc2ccccc2)cc1Cl
    3	17	-0.9	1.5%	-8.5	5
13. O=[N+]([O-])c1ccc(-c2ccc(C=Nc3cccc4ccccc34)o2)cc1
    ?	3	-0.2	1.0%[38.3 µM]	-0.4	-15
14. CN(C(=O)COC(=O)CCc1c[nH]c2ccccc12)c1ccccc1
    -9	-14	3.2	-1.6%	4.1	13
15. Nc1cc(C(=O)OCC(=O)NCc2ccco2)ccc1Cl
    -8	-1	-1.1	2.3%	-0.8	-8
16. C#CCOC(=O)c1ccccc1C(=O)N(CC)CC
    3	12	2.0	-2.9%[38.3 µM]	-0.6	41
17. CC(=O)Nc1ccc(NC(=O)c2ccc(N(C)S(=O)(=O)c3ccc(C)cc3)cc2)cc1
    25	-4	0.4	9.7%	-1.8	-4
18. Cc1ccccc1Nc1c(-c2ccncc2)nc2ccc(Br)cn12
    -9	-6	0.9	3.4%	-5.9	-5
19. Cc1ccc2cc(CN(C(=O)c3cccnc3)C(C)C)c(=O)[nH]c2c1
    3	1	-0.1	3.5%[38.3 µM]	1.1	-2
20. O=C(Nc1cnn(Cc2c(Cl)cccc2Cl)c1)c1ccc([N+](=O)[O-])cc1
    -1	1	3.9	4.2%	4.0	12

Record cards (already shown). Order of values: Six1-Eya2 inh, CtBP-E1A inh, TRPML1 agonist, PINK1 expr mod, D2 agonist, TRPML1 inh
O=[N+]([O-])c1ccc(-c2ccc(C=Nc3cccc4ccccc34)o2)cc1 is listed with ?, 3, -0.2, 1.0%[38.3 µM], -0.4, -15
CN(C(=O)COC(=O)CCc1c[nH]c2ccccc12)c1ccccc1 is listed with -9, -14, 3.2, -1.6%, 4.1, 13

The results go on.
Each structure is followed by: Six1-Eya2 inh	CtBP-E1A inh	TRPML1 agonist	PINK1 expr mod	D2 agonist	TRPML1 inh
21. CN(C)S(=O)(=O)c1ccc(NC(=O)C2CC(=O)N(Cc3ccccc3)C2)cc1 (stereo unspecified)
    -1	5	-0.4	-1.7%	-1.5	19
22. Cc1cc(S(=O)(=O)N2CCN(c3ccccc3O)CC2)c(C)s1
    2	-8	1.3	0.8%	2.4	-5
23. Cc1c(N(C(=O)CNC(=O)c2ccccc2)C2(C(=O)NC3CCCCC3)CCCCC2)c(=O)n(-c2ccccc2)n1C
    3	-3	0.2	-0.9%	-2.5	31
24. O=C(c1ccc(CS(=O)c2cccc(Cl)c2)o1)N1CCOCC1 (stereo unspecified)
    0	0	0.4	-1.4%	-4.4	27
25. Cc1ccc(C(=O)N/C(=C\c2cccs2)C(=O)N2CCOCC2)cc1C
    3	8	-0.4	0.6%	0.7	20
26. COC(=O)C(C)Oc1ccc(Oc2nc(Cl)ccc2Cl)cc1 (stereo unspecified)
    22	0	2.7	0.7%	3.0	-11
27. CC1(c2cc(C(F)(F)F)n3nc(C(=O)O)cc3n2)CC1
    -1	13	3.0	9.7%[38.3 µM]	0.8	-5
28. CC(C)(C)OC(=O)N1CCC(c2c(C(=O)NC3CCCCC3)cnn2-c2cccc(Cl)c2)CC1
    .	.	17	-1.0%	.	6
29. CC1CCC(NC(=O)CN(C)S(=O)(=O)c2cccc3cccnc23)CC1 (stereo unspecified)
    -1	.	-0.6	-0.1%	-3.7	48
30. CCOC(=O)c1ccc(NC(=O)c2sc3nc(N4CCOCC4)c4c(c3c2N)CCCC4)cc1
    -2	.	-0.8	-0.7%	-8.2	8
31. O=C(COc1ccc2ccccc2c1)NN1C(=O)c2ccccc2C1=O
    3	11	0.8	4.9%	-0.9	12
32. Nc1ccncc1N
    -10	-10	-0.5	0.1%	4.7	-13
33. CC(=O)N1N=C(c2ccc(C)cc2)OC1c1ccc(C)cc1 (stereo unspecified)
    -2	4	-1.2	-1.0%	-2.5	-7
34. Cc1c(Br)c([N+](=O)[O-])nn1C(C)C(=O)NCc1ccco1 (stereo unspecified)
    1	0	-1.8	-0.1%	0.6	19
35. CC(=O)c1ccc(NC(=O)c2ccc3c(Cl)c4c(nc3c2)CCCC4)cc1
    9	-2	0.0	-1.7%	-3.1	59
36. CC(C)CCN(C(=O)CNC(=O)c1cccs1)C(C(=O)NC1CCCCC1)c1cccnc1 (stereo unspecified)
    5	4	-0.8	-1.9%	-2.1	-10
37. CC(=O)N/C(=N\c1nc(C)cc(C)n1)Nc1ccc2ccccc2c1
    2	-2	-0.4	7.6%	-5.1	-10
38. COc1ccc(NC(=O)C2C(c3ccccc3)C2(Cl)Cl)c(OC)c1 (stereo unspecified)
    -5	-3	2.4	2.0%	2.6	-1
39. O=C(NCc1ccccc1)NC1(C(=O)N2CCN(c3ncccn3)CC2)CCCCC1
    14	-2	-0.3	0.9%	0.3	-12
40. CCOc1ccc(NC(=O)CCSc2nnc(C)s2)cc1
    24	2	1.7	-0.9%	-2.9	-4
41. CCCCCCNC1=NCCS1
    -5	3	0.5	-0.3%	-2.8	13
42. Cc1[nH]c2ccccc2c1SCCNC(=O)c1ccc(F)cc1
    .	.	-0.2	0.9%	.	4
43. Cc1ccc2nc(-c3cccnc3)oc2c1
    -7	-6	0.1&-0.8	-0.3%&-0.5%	-2.1	91
44. O=C(C1COc2ccccc2O1)N1CCn2c(nc3ccccc32)C1 (stereo unspecified)
    -5	4	0.8	-3.7%	1.3	-28
45. COc1cccc2sc(N3CCN(C(=O)c4cccs4)CC3)nc12
    -17	0	-0.7	27%	-2.8	-4
46. N#C/C(=C/c1ccc(-c2ccc([N+](=O)[O-])cc2)o1)C(=O)Nc1nc(-c2cccs2)cs1
    -16	-24	0.3	3.4%	10.0	-5
47. O=[N+]([O-])c1ccc2c(c1)Cc1cc(F)ccc1-2
    -7	-1	-1.0	-0.7%	-2.7	0
48. Cc1nc(N2CCN(c3ccccc3)CC2)nc2c1C(=O)CCC2
    -4	1	0.0	0.7%	0.3	1
49. Cc1cc[n+](C(C)C(=O)c2ccc(-c3ccccc3)cc2)cc1 (stereo unspecified)
    -5	0	-0.2	6.7%	-0.7	-10
50. O=C(O)CCn1c(=O)c2cccn2c2cccnc21
    .	.	-0.5	1.9%	.	12
51. COc1ccc(-c2noc(CCC(=O)N3CCC(c4cc(C)ccc4C)CC3)n2)cc1
    2	1	-0.8	-0.2%	-2.5	10
52. COc1ccc(CC(=O)NC(C)c2ccc(S(N)(=O)=O)cc2)cc1S(=O)(=O)N1CCOCC1 (stereo unspecified)
    1	-3	0.5	0.0%	-4.8	11
53. O=S(=O)(c1cccc(F)c1)N1CCCN(c2ccc(C(F)(F)F)cn2)CC1
    2	-3	0.3	-1.7%	1.1	-6
54. Cc1cc(C)n(-c2ccc(C(=O)N3CCN(S(=O)(=O)c4ccc(OC(F)(F)F)cc4)CC3)cc2)n1
    0	2	1.1	3.4%	0.0	16
55. CCC(=O)N1CCc2cc(S(=O)(=O)NC(C(=O)NCc3ccc(F)cc3)C(C)C)ccc21 (stereo unspecified)
    0	3	-0.9	-4.4%	-3.8	-1
56. Cc1ccccc1C(=O)Oc1ccccc1C(=O)N1CCOCC1
    5	2	-0.1	2.9%	-2.6	-9
57. COc1cc(CN2CCC(n3nccc3NC(=O)C3CC3)CC2)cc(OC)c1
    -6	11	-0.3	?	-5.0	23
58. O=C(O)c1cc(C(F)(F)F)nc2ccccc12
    -2	8	-0.4	-0.8%	-4.5	-15
59. O=C(O)CCc1nc(-c2ccccc2)no1
    1	6	0.8	-2.1%	-0.8	-8
60. COc1ccc(CNC(=O)Cn2cnc3c(SC)nc(N)nc32)cc1
    -2	-2	-1.1	11%	-1.7	-5
61. CC1Cc2ccccc2N1C(=O)c1cc2c(=O)n3ccccc3nc2n1C (stereo unspecified)
    4	6	1.0	-2.5%	0.9	-11
62. CC1=C(c2ccc(C)cc2)S(=O)(=O)N(Cc2ccc(C(=O)NCc3cccc(C)c3)cc2)C1=O
    .	.	2.5	1.6%	.	-18
63. O=C(CCN1C(=O)C2CCCCC2C1=O)N1CCN(S(=O)(=O)c2ccccc2)CC1 (stereo unspecified)
    1	5	0.5	0.0%	-4.3	-20
64. Cn1c(-c2ccc(C(=O)c3ccccc3)s2)nc2ccccc21
    8	13	-0.1	?	-2.9	13
65. Cc1cc(Oc2ccc(Cl)cc2)nc(-c2ccccc2O)n1
    10	9	1.9	4.1%	-1.5	44
66. COc1ccc(CNC(=O)OC2CC3CC2[C@H]2CCCCN2C3=O)cc1 (stereo partly specified)
    13	34	-0.8	0.9%	.	.
67. CCOc1ccc(S(=O)(=O)N(C)c2ccc(OCC(=O)NCC3CCCCC3)cc2)cc1
    -2	0	0.3	0.3%	2.3	6
